# Source: PubChem BioAssay (ICCB-Longwood Screening Facility, Harvard Medical School)
# Polio RdRp inh: poliovirus RNA polymerase inhibition | % elongation, % (compound at 16.7 µg/mL) | P03300 | 150,000 compounds, 0.66% hits | poliovirus polymerase elongation, fluorescence polarization; hits give low values; in the data active = % elongation below about 90%; note: some results filed as inactive read as strong as hits
# Target sequence (P03300 1749-2209 limits assumed): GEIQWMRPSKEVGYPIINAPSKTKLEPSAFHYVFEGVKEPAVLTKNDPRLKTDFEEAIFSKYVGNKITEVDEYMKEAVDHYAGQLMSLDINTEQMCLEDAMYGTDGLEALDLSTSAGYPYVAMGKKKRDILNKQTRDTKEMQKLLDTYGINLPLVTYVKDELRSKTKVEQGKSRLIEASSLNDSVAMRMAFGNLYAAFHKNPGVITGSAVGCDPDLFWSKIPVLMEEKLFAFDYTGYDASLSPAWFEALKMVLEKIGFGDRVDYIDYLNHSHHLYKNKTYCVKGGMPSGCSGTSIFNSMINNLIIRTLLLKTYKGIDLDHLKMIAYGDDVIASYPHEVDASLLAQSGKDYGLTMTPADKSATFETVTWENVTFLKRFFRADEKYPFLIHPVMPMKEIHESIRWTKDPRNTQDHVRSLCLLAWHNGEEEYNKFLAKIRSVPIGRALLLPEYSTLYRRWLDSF
# Polio RdRp inh intensity: second read-out of Polio RdRp inh, no call of its own (marks repeat the call); % elongation; measured here: total intensity read-out; formula for this scale not given here;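 total fluorescence in place of polarization; lower means less elongation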
# * hit, by the source's call. A portion of the library. The share of hits here may be higher or lower than overall.
entry | smiles | Polio RdRp inh | Polio RdRp inh intensity
1 | CCOCCCN(Cc1ccco1)S(=O)(=O)c1cc2c(cc1C)NC(=O)CO2 | 105 | 110
2 | O=C(Cn1nc(C(F)(F)F)c2c1CCCC2)Nc1cccc(Cl)c1 | 103 | 109
3 | Cc1ccc(NC(=O)Cn2nnnc2-c2ccccc2N)cc1 | 108 | 111
4 | CCc1nn(CC(=O)NCCCN(CC)CC)c(=O)c2cc3occc3n12 | 107 | 102
5 | CCn1cc(C(=O)N2CCN(c3ccc(C(C)=O)cc3)CC2)c2cc(OC)c(OC)cc2c1=O | 102 | 101
6 | CCOC(=O)c1ccc2c(c1)N(CC(=O)Nc1ccc(C)cc1C)C(=O)c1ccccc1S2 | 110 | 98
7 | COCCCNC(=O)c1nn(-c2ccc(C)cc2)nc1CO | 102 | 110
8 | Cc1oc(-c2ccc(C(=O)NCc3ccccc3)cc2)nc1CN1CCc2ccccc21 | 108 | 105
9 | Cc1cc(Nc2ccc(F)cc2F)nc(-n2nc(C)cc2C)n1 | 105 | 108
10 | COc1cc(-c2noc(-c3ccc(NCc4ccccc4)c([N+](=O)[O-])c3)n2)cc(OC)c1OC | 110 | 118
11 | O=S(=O)(Nc1nc2ccccc2nc1Nc1ccccc1Br)c1ccccc1 | 106 | 107
12 | O=C(c1ccc(CS(=O)c2ccccc2Cl)o1)N1CCN(c2ccccc2F)CC1 (stereo unspecified) | 109 | 104
13 | COc1cccc(NC(=O)Cn2cc(C(=O)C3CCCCC3)c3ccccc32)c1 | 108 | 112
14 | Cc1cccc(NS(=O)(=O)c2ccc3[nH]c(=O)[nH]c3c2)c1C | 103 | 108
15 | COc1ccccc1CNC(=O)c1ccc2c(c1)nnn2C1CCCC1 | 113 | 104
16 | COC(=O)c1c(NC(=O)c2ccc(S(=O)(=O)N3CCCCC3)cc2)sc2c1CCN(C)C2 | 100 | 81
17 | Cc1cccn2c(=O)c3cc(C#N)c(=O)n(-c4nnc(SCc5ccc(Cl)cc5)s4)c3nc12 | 116 | 125
18 | CCc1c(C)sc(NC(=O)C2c3ccccc3Oc3ccccc32)c1C(=O)OC(C)C | 105 | 106
19 | Cc1cccc(-c2nc(SCCCOc3ccccc3Cl)n3[nH]c(=O)cc3n2)c1 | 104 | 111
20 | Cc1ccccc1C(=O)Nc1cccc(OCc2cc(=O)n3cccc(C)c3n2)c1 | 106 | 108
21 | COc1ccc(NC(=O)CCc2c(C)nc3c(c2C)c(=O)n(C)c(=O)n3C)c(OC)c1 | 107 | 111
22 | CC(C)(C)c1ccc(C(=O)N2CCN(Cc3cc(=O)n4nc(-c5ccccc5F)sc4n3)CC2)cc1 | 115 | 111
23 | O=C(CCCCn1c(=O)c2ccccc2n(CC(=O)Nc2ccccc2)c1=O)NCc1ccccc1Cl | 102 | 107
24 | CCc1ccc(C2=NN(CCC(=O)NCCc3ccc(OC)c(OC)c3)C(=O)CC2)cc1 | 106 | 114
25 | CC(C)c1nnc(N2C(=O)c3oc4ccccc4c(=O)c3C2c2cccc(O)c2)s1 (stereo unspecified) | 108 | 109
26 | Cc1nc2ccn(Cc3cccs3)c(=O)c2cc1C(=O)N1CCN(c2ccccc2F)CC1 | 99 | 104
27 | COc1ccc(-c2[nH]ncc2C(=O)NCc2ccccc2C)cc1 | 110 | 111
28 | CCOc1ccc(CCNc2nc3ccccc3n3c(C)nnc23)cc1OCC | 98 | 94
29 | CCCCc1ccc(-n2nc3cc(C)c(NC(=O)Cc4ccccc4)cc3n2)cc1 | 101 | 102
30 | Cc1nc2cc(-c3cccc(F)c3)nn2c(C)c1CCC(=O)Nc1ccccc1C(N)=O | 104 | 105
31 | Cc1ccc(-n2c(=O)c3c(cnn3C)n(CC(=O)Nc3c(C)cccc3C)c2=O)cc1 | 103 | 105
32 | C=CCc1ccccc1OCCSc1nc(-c2cccs2)nc2cc(=O)[nH]n12 | 108 | 110
33 | COc1ccc2cc3c(N)nn(C(=O)c4ccc(F)cc4Cl)c3nc2c1 | 112 | 110
34 | Cc1cc2n(n1)CCC(=O)N2Cc1ccc(C(=O)Nc2ccc(F)cc2F)cc1 | 109 | 106
35 | Cc1ccc(NC(=O)CCCN2C(=O)COc3ccc(C)cc32)c(C)c1 | 105 | 105
36 | CC(=O)c1c(C)nc2nc(-c3ccccc3)nn2c1C | 104 | 106
37 | Cc1ccccc1OCCCCn1nnc2sc3c(c2c1=O)CCC(C)C3 (stereo unspecified) | 110 | 112
38 | O=C1COc2cc(S(=O)(=O)CCC(=O)N3CCN(c4cccc(Cl)c4)CC3)c(Cl)cc2N1 | 103 | 109
39 | Cc1ccc(-n2nc(C(=O)N(C)c3ccccc3Cl)c3c4ccccc4n(C)c3c2=O)cc1 | 107 | 110
40 | COc1ccccc1C(=O)Nc1ccccc1OCc1cc(=O)n2ccccc2n1 | 110 | 112
41 | Cc1cc(C)cc(NC(=O)Cc2csc(COc3cccc(C)c3)n2)c1 | 115 | 119
42 | COc1ccc(C)c2sc(NC(=O)c3ccc(S(=O)(=O)N4CCOCC4)cc3)nc12 | 109 | 116
43 | O=C(CN1CCN(Cc2ccc(Cl)cc2)C1=O)NCc1ccc(F)cc1 | 99 | 91
44 | CC(C)c1ccc(NC(=O)c2cccn2-c2nnc(N3CCCCC3)s2)cc1 | 100 | 105
45 | COc1ccc(OC)c(Nc2c3c(nc4ccccc24)CCC3)c1 | 103 | 101
46 | CN(C)c1ccc(C(CNS(=O)(=O)c2ccc(Br)cc2)N2CCCC2)cc1 (stereo unspecified) | 98 | 103
47 | CCOc1ccc(NC(=O)c2c(NCc3cccs3)sc3c2CCC(C)C3)cc1 (stereo unspecified) | 104 | 96
48 | CC(C)(C)C(=O)Nc1ccc(-c2nc3ccccc3s2)cc1 | 102 | 108
49 | CCC1CCCCN1C(=O)Cn1c(=O)n(-c2ccc(Cl)c(Cl)c2)c(=O)c2c(C)c(C(=O)N(C)C)sc21 (stereo unspecified) | 95 | 94
50 | Cc1c2cnn(-c3ccccc3)c(=O)c2c(C)n1CC(=O)Nc1ccccc1Br | 108 | 111

# The list goes on.
entry | smiles | Polio RdRp inh | Polio RdRp inh intensity
51 | COc1cc(OC)c(NC(=O)COCc2cc(-c3cccs3)on2)cc1Cl | 102 | 109
52 | Cc1nn(-c2ccccc2)c(OC(=O)c2ccc(Cl)cc2)c1S(=O)(=O)c1ccccc1 | 109 | 107
53 | Cc1ccc(NC(=O)CSCc2cnn(-c3ccccc3)c2-n2cccc2)c(C)c1 | 112 | 107
54 | COC(=O)c1c(NC(=O)C2c3ccccc3Oc3ccccc32)sc2c1CCC(C)C2 (stereo unspecified) | 102 | 102
55 | CCOC(=O)c1c(C)oc2nc(C)nc(Nc3ccc(C)c(Cl)c3)c12 | 108 | 113
56 | COc1ccc(CCNC(=O)c2cc(=O)c3c(C)cc(C)cc3o2)cc1OC | 106 | 115
57 | Cc1cc(C)c2c(NC(=O)c3ccccc3Cl)c(C(=O)NCc3ccc(Cl)cc3)sc2n1 | 100 | 105
58 | Cc1cc(C)c2c(n1)SCC(=O)N2CC(=O)Nc1cccc(C)c1C | 108 | 110
59 | CCOc1ccccc1-c1nc(Cn2c(=O)cc(C)c3c(C)nn(-c4ccccc4)c32)c(C)o1 | 108 | 114
60 | Cc1ccccc1Cn1cc(CCC(=O)NC(C)c2ccccc2)c2ccccc21 (stereo unspecified) | 109 | 112
61 | Cc1ccc(NC(=O)COc2ccc(-c3nn(C)c(=O)c4ccccc34)cc2)c(C)c1 | 106 | 107
62 | COc1ccc(Cl)cc1NC(=O)C1CCN(c2ncnc3c2nc2n3CCCCC2)CC1 | 106 | 109
63 | COc1cc(NC(=O)C2CCN(c3nc4ccccc4nc3C(F)(F)F)CC2)cc(OC)c1 | 109 | 111
64 | CCOC(=O)c1c(S(=O)(=O)N2CCC(C(=O)Nc3ccc(OCC)cc3)CC2)c(C)n(C)c1C | 107 | 98
65 | CN1C(=O)Cc2cc(S(=O)(=O)NCc3ccccc3Cl)ccc21 | 107 | 110
66 | Cc1c(Cl)cccc1Nc1nn2c(=O)c3ccc(C(=O)NCCc4ccccc4)cc3nc2s1 | 104 | 98
67 | CCCCCCOc1ccc(C2C(=O)N(C3CCCCC3)CC(=O)N2C2CCCCC2)cc1 (stereo unspecified) | 107 | 106
68 | O=C(c1ccc2c(c1)N(Cc1ccc(F)cc1)C(=O)c1ccccc1S2)N1CCC2(CC1)OCCO2 | 109 | 115
69 | COc1cc2[nH]c(=O)n(CCCC(=O)NCc3ccc(Cl)cc3)c(=O)c2cc1OC | 108 | 107
70 | O=C(Cn1cc(C(=O)C(F)(F)F)c2ccccc21)N1CCCCCC1 | 107 | 106
71 | CCOc1ccccc1NC(=O)CSc1c2c(nc3ccc(Cl)cc13)CCCC2 | 106 | 111
72 | Cc1nn2c(=O)cc(COC(=O)c3ccccc3NC(=O)C(C)C)nc2s1 | 110 | 111
73 | CC(=O)c1cccc(NC(=O)c2noc3c2CC(C)CC3)c1 (stereo unspecified) | 100 | 109
74 | CCC(C)NC(=O)CSc1nc2n[nH]c(C)c2c(=N)n1-c1ccc(C)c(Cl)c1 (stereo unspecified) | 108 | 103
75 | Cc1ccc(Cl)cc1N1CCN(C(=O)C2CCN(S(=O)(=O)c3cccc4nonc34)CC2)CC1 | 104 | 105
76 | CCC(=O)N1CCc2cc(S(=O)(=O)NCCC(=O)Nc3ccc(CC)cc3)ccc21 | 103 | 105
77 | O=C1CN(C(=O)c2ccc(S(=O)(=O)N3CCCC3)cc2)C(c2ccc(F)cc2)c2cc(F)ccc2N1 (stereo unspecified) | 105 | 107
78 | O=C(NCCc1csc(-c2ccc(C(F)(F)F)cc2)n1)C(=O)Nc1cc(F)ccc1F | 109 | 115
79 | COc1cccc(CNC(=O)C2CCN(c3nn4c(=O)cc(C)nc4s3)CC2)c1 | 106 | 107
80 | CCn1cc(C(=O)NCc2ccccc2Cl)c(=O)c2cc(S(=O)(=O)N3CCCCC3)ccc21 | 105 | 110
81 | CCOc1cc(-c2nnc(SCC(=O)NCCCOC)nc2-c2ccc(OC)c(OCC)c2)ccc1OC | 103 | 103
82 | COc1cccc(CNC(=O)CCCn2nc(C)c3c(C)n(-c4ccc(C)cc4)nc3c2=O)c1OC | 112 | 109
83 | Cc1ccc(C)c(NC(=O)Cn2cc(C(=O)c3cccs3)c3ccccc32)c1 | 107 | 102
84 | CC(C)Cc1ccc(S(=O)(=O)NCc2nc3cccnc3n2Cc2ccccc2)cc1 | 107 | 103
85 | CCOC(=O)C1=C(CN2CCN(c3ccc(OC)cc3)CC2)NC(=O)NC1c1ccc(OC)cc1 (stereo unspecified) | 107 | 98
86 | CCc1ccc(-n2c(=O)c3sc4ccccc4c3n(CC(=O)N3CCCC3)c2=O)cc1 | 108 | 108
87 | CCN(CC)c1nc(-c2ccccc2Cl)c2cc(Br)ccc2n1 | 109 | 113
88 | CCOC(=O)c1ccc(NC(=O)CSc2nc3c(c(=O)[nH]2)CN(Cc2ccccc2)CC3)cc1 | 107 | 112
89 | O=C(Nc1ccc(F)c(Cl)c1)c1cc(S(=O)(=O)N2CCc3ccccc3C2)ccc1F | 108 | 107
90 | Cc1ccc(NC(=O)CCS(=O)(=O)c2ccc3c(c2)oc(=O)n3C)c(Br)c1 | 106 | 107
91 | Cc1nc(CC(=O)Nc2ccc(C(N)=O)cc2)cs1 | 110 | 113
92 | CCCCNC(=O)CCCn1c(=O)c2ccccc2n(Cc2ccc(Cl)cc2)c1=O | 103 | 99
93 | Cc1ccccc1CN1c2ccccc2S(=O)(=O)c2ccccc21 | 108 | 109
94 | CCOc1ccccc1-n1c(N)c(C(=O)OC)c2nc3ccccc3nc21 | 103 | 105
95 | CCOC(=O)c1c(NC(=O)COc2cc(C)ccc2C(C)C)sc2c1CCCC2 | 104 | 104
96 | COc1cc(OC)cc(-n2c(=O)c3ccccc3n(Cc3ccccc3C#N)c2=O)c1 | 103 | 101
97 | CCOC(=O)c1c(NC(=O)C(C)Sc2cn(CCNC(=O)c3ccc(OCC)cc3)c3ccccc23)sc2c1CCC2 (stereo unspecified) | 107 | 112
98 | CN(C)CCNC(=O)Cn1nc(N2CCN(c3ccccc3)CC2)ccc1=O | 100 | 96
99 | CC(=O)c1ccc(NC(=O)CCn2nc(C)c(S(=O)(=O)N3CCC(C)CC3)c2C)cc1 | 110 | 113
100 | CCOC(=O)c1ccc(NC(=O)Cn2c3ncccc3c(=O)n2-c2ccc(C)c(C)c2)cc1 | 109 | 111

# Next section:
entry | smiles | Polio RdRp inh | Polio RdRp inh intensity
101 | Cc1cc(-c2ccc(C)c(S(=O)(=O)N3CCN(c4cccc(C(F)(F)F)c4)CC3)c2)on1 | 108 | 113
102 | CCCCSCCCNC(=O)CN1C(=O)COc2ccc(S(=O)(=O)N3CCC(C)CC3)cc21 | 101 | 99
103 | COc1ccc(CCNC(=O)C(=O)NCC(c2ccc3c(c2)OCO3)N2CCOCC2)cc1OC (stereo unspecified) | 105 | 111
104 | COc1ccc(C2c3c(-c4ccc(F)cc4)n[nH]c3C(=O)N2c2ccccc2)cc1OC (stereo unspecified) | 108 | 105
105 | COCCCNC(=O)c1ccc(-n2c(-c3ccccc3)cc3c2CCCCC3)cc1 | 103 | 108
106 | CC(=O)N1c2ccc(S(=O)(=O)N3CCC(C(=O)Nc4cccc(Cl)c4C)CC3)cc2CC1C (stereo unspecified) | 105 | 111
107 | CSc1cccc(NC(=O)CN(c2ccccc2)S(=O)(=O)N(C)C)c1 | 111 | 106
108 | CN(C(=O)Cn1cnc2onc(-c3ccc(F)cc3)c2c1=O)c1ccccc1Cl | 104 | 112
109 | Cc1cc(C)n(-c2nnc(Nc3ccc(C)c(C)c3)c3ccccc23)n1 | 107 | 112
110 | CCOc1ccc(C(=O)Nc2cccc(NC(=O)c3ccco3)c2)cc1Cl | 104 | 111
111 | CCCCCCn1c(/C=C/c2ccccc2)nc2ccccc21 | 102 | 106
112 | Cc1cccc(CSCCNC(=O)C2CCN(S(=O)(=O)Cc3ccccc3)CC2)c1 | 111 | 110
113 | Cc1ccc(CNC(=O)CCS(=O)(=O)c2cc3c(cc2Cl)NC(=O)CO3)cc1 | 109 | 110
114 | CCOc1ccc(-c2cc3nc(C4CCN(C(=O)OC(C)(C)C)CC4)c(C(=O)Nc4ccc(C)cc4C)cn3n2)cc1 | 106 | 109
